High-throughput results as filed in PubChem BioAssay.
STK33 inh = blocks human STK33 kinase activity. AID 2661. purified STK33, MBP phosphorylation, ADP-Glo luminescence. hit rate 0.073% among 320,000. Q9BYT3. inhibition, % at 10 µM;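 active = inhibition at or above 25%, using the most active replicate where run in duplicate; inactive = inhibition below 25%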
Target sequence (Q9BYT3 whole entry, looked up): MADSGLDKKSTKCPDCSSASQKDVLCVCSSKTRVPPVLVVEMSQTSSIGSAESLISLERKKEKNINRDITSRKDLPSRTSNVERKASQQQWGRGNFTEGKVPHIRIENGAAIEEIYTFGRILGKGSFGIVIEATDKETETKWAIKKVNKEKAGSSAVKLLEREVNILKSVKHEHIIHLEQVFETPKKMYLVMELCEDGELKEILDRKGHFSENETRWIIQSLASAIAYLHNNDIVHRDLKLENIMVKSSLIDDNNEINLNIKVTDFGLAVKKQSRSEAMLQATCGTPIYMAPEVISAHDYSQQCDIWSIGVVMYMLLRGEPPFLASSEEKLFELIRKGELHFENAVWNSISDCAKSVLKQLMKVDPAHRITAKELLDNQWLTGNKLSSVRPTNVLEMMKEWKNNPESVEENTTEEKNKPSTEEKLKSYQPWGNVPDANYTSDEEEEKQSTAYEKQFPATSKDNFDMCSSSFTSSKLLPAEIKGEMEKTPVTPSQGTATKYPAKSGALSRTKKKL
Starred values were filed as active, the others as inactive.

SMILES	STK33 inh
COc1ccc(N=C2CCS(=O)(=O)c3sccc32)cc1	0.4
COc1ccc(Cl)cc1C(=O)Nc1ccc2nc3n(c(=O)c2c1)CCCC3	0.8
CC1(C)OC(=O)C(=CNc2ccc(F)cc2)C(=O)O1	0.5
COc1ccccc1NS(=O)(=O)c1cccc(C(=O)NN=C2CCCC2)c1	-0.3
S=c1[nH]nc(-c2ccncc2)n1/N=C/C=C/c1ccco1	1.7
CCOC(=O)CN1C(=O)N[C@@H](c2ccccc2)[C@H](C(C)=O)[C@H]1C	1.0
O=C1CCN(C(=O)Nc2ccccc2Cl)N1	-0.8
CCCN(CCC)CCCNC(=O)c1cn(-c2ccc(OC)cc2)c(=O)c2ccccc12	-1.4
CCC(=O)N1CCc2cc(S(=O)(=O)NC(Cc3ccccc3)C(=O)O)ccc21 (configuration not stated)	-0.8
O=C(Cn1ccc2ccccc2c1=O)N1CCN(c2cccc(Cl)c2)CC1	0.1
O=C(Nc1ccc(-c2nc3ccccc3o2)cc1)c1ccc(N2CCOCC2)c([N+](=O)[O-])c1	-1.9
O=c1ccc(C(F)(F)F)cn1Cc1cc(=O)n2cc(Br)ccc2n1	0.9
Cc1ccc(C)c(OCCN2CCOCC2)c1	-1.9
CCN1CCN(CCNC(=O)c2ccc3c(c2)N(Cc2cccc(Cl)c2)C(=O)c2ccccc2S3=O)CC1 (configuration not stated)	-0.7
CCN(CC)C(=O)C(=O)Nc1ccc(OCc2ccccc2)cc1	-0.2
COCCCNC(=O)/C(C#N)=C1\N=C(NC(=O)c2cccs2)c2ccccc21	-0.4
COc1ccccc1NC(=S)N(CCN(C)C)C(C)c1ccncc1 (configuration not stated)	-2.4
Cc1nn(CC(=O)N2c3ccccc3NC(=O)C2(C)C)c(C)c1[N+](=O)[O-]	2.6
O=C(CCN1CCN(C(=O)c2ccccc2)CC1)c1ccc(Br)cc1	-0.2
CCN1C(=O)c2ccc(C(=O)Nc3ccc4c(c3)OCO4)cc2C1=O	0.5
Cc1c(C(=O)O)cnc2c([N+](=O)[O-])cnn12	0.0
COc1cc(/C=C(/C#N)c2nc3ccccc3[nH]2)ccc1OCC(=O)Nc1ccccc1C(C)C	1.7
C=C(C)CNC(=S)N/N=C/c1ccco1	0.3
CN(C)/C=C1/C=C(C=O)OC1=O	-0.5
Cc1c(NN=C(C#N)C#N)c(=O)n(-c2ccccc2)n1C	1.0
O=C(Cn1nnc(-c2ccccc2F)n1)Nc1ccc(S(=O)(=O)NC2CCCC2)cc1	-1.4
Cc1ccc2sc(NC(=O)c3ccc(N4C(=O)CCC4=O)cc3)nc2c1C	-0.7
COc1ccccc1NS(=O)(=O)c1cccc(C(=O)N/N=C(\C)c2ccc3c(c2)OCCO3)c1	0.2
Cc1ccc(C)c(S(=O)(=O)Nc2nc3ccc(S(N)(=O)=O)cc3s2)c1	0.0
Cc1cccc(CSC(=N)N)c1	1.6

Reprinted at random: 6 compounds from above
SMILES	STK33 inh
COc1ccc(Cl)cc1C(=O)Nc1ccc2nc3n(c(=O)c2c1)CCCC3	0.8
O=C1CCN(C(=O)Nc2ccccc2Cl)N1	-0.8
Cc1c(C(=O)O)cnc2c([N+](=O)[O-])cnn12	0.0
COCCCNC(=O)/C(C#N)=C1\N=C(NC(=O)c2cccs2)c2ccccc21	-0.4
CCN1C(=O)c2ccc(C(=O)Nc3ccc4c(c3)OCO4)cc2C1=O	0.5
CCC(=O)N1CCc2cc(S(=O)(=O)NC(Cc3ccccc3)C(=O)O)ccc21 (configuration not stated)	-0.8

(continued)
SMILES	STK33 inh
COC(=O)CSc1ncnc2c1sc1nc(-c3ccco3)c3c(c12)CC(C)(C)OC3	-1.0
Cn1cc(C(=O)Nc2ccc(F)c(Cl)c2)cn1	-0.2
CCOC(=O)c1sc(=NC(=O)c2c(F)cccc2F)n(C)c1C	4.1
COCCNC(=O)C(c1ccc(C)o1)N(C(=O)c1snc(C(N)=O)c1N)c1cccc(C)c1 (configuration not stated)	1.6
CC(NCc1cccs1)C(=O)Nc1cc(Cl)cc(Cl)c1 (configuration not stated)	1.5
CCOC(=O)C(C(C)=O)C(c1ccc(OCCC(C)C)cc1)C(C(C)=O)C(=O)OCC (configuration not stated)	-1.2
C=CCn1c(SC)nnc1C1COc2ccccc2O1 (configuration not stated)	-0.9
COc1ccccc1NC(=O)CSC1=NCCN1	0.2
CC(NC(=O)CSc1nc2c(c(C(F)(F)F)n1)CCc1ccccc1-2)c1ccccc1 (configuration not stated)	-1.4
CC(C)(C)C(=O)/C(=C/c1ccncc1)n1cncn1	1.6
Cc1ccccc1OCCC(=O)NCCc1ccc(S(N)(=O)=O)cc1	-2.5
CN1CCN(C(=O)Nc2ccccc2)CC1	-0.8
CC(C)C[C@@H](CC#N)N1CCN(CCc2ccccc2)CCC1=O	-1.1
COc1ccc(NC(=O)c2ccc(Cl)c(NC(=O)c3ccncc3)c2)cc1	-0.7
COc1ccc(Oc2cc(C)c3cccc(C)c3n2)cc1	-0.5
CCN1CC=C2C(C#N)=C(N)C(C#N)(C#N)[C@H](c3cccc(OC)c3OC)[C@H]2C1	6.2
COc1ccc(OC)c(S(=O)(=O)N2CCN(c3ccccc3)CC2)c1	-3.4
O=C(O)CN1C(=O)CNC1=O	-1.5
CCCCN(Cc1ccccc1)S(=O)(=O)c1ccc2[nH]c(=O)oc2c1	-1.5
O/N=C1/CCSc2ccccc21	-1.3
Cc1ccc(C(=O)CC2(O)C(=O)N(CCc3ccccc3)c3ccc(Br)cc32)o1 (configuration not stated)	-1.7
CCn1c(O)c(C=NC2CCCC(C)C2C)sc1=S (configuration not stated)	-0.2
COC(=O)c1c(C)[nH]c(C(=O)OCC(=O)NCC(C)C)c1C	-1.1
O=C(CSc1nnc2c(n1)[nH]c1ccccc12)Nc1cccc(S(=O)(=O)N2CCOCC2)c1	-1.7
Fc1ccc(N2CCN(Cc3nnc(-c4ccccc4)o3)CC2)cc1	0.4
Fc1ccc(CNC(=S)NCc2ccccc2)cc1	-0.6
CCN1C(=O)[C@H]2[C@@H](c3ccc(-c4cccc(Cl)c4)c(OC)c3)N3CCCC[C@@]3(C(=O)OC)[C@H]2C1=O	-1.5
COc1ccc(/C=C/C(=O)NC(C)(C)C)cc1S(=O)(=O)N1CCOCC1	-1.7
CC1Cc2ccccc2N1C(=O)C1CCCN(S(=O)(=O)c2cccc3cccnc23)C1 (configuration not stated)	-1.0
N#CCC(=O)N/N=C/c1ccc(OS(=O)(=O)c2ccccc2)cc1	0.6
Cn1nc(Cc2n[nH]c(=S)n2C)c2ccccc2c1=O	0.9
CC(C)CN(C(=O)COC(=O)CCC(=O)c1ccc(Cl)cc1)c1c(N)n(Cc2ccccc2)c(=O)[nH]c1=O	-1.0
O=C(Cn1cnc2ccccc2c1=O)c1cccs1	-0.9
O=C(Nc1cccc(S(=O)(=O)C(F)F)c1)c1ccc(S(=O)(=O)N2CCOCC2)cc1	-1.1
CC1CCc2c(sc(/N=C/N(C)C)c2C#N)C1 (configuration not stated)	-1.8
CC1CN(CCC(=O)Nc2ccc3c(c2)CCC3)CC(C)O1 (configuration not stated)	-1.4
O=C(N/C(=C\c1ccc(Br)cc1)C(=O)N1CCOCC1)c1ccc(Br)o1	0.4
COP(=O)(OC)c1nc(-c2cccc3ccccc23)oc1N1CCOCC1	-2.5
COC(=O)Cn1c(CCS(=O)(=O)c2ccc(Cl)cc2)nc2ccccc21	-0.4
c1ccc(-n2ncc3c(NC4CCCCCC4)ncnc32)cc1	0.9

Part of the list above, set out differently.
STK33 inh | Compound
-3.4 | COc1ccc(OC)c(S(=O)(=O)N2CCN(c3ccccc3)CC2)c1
0.4 | COc1ccc(N=C2CCS(=O)(=O)c3sccc32)cc1

The listing picks up, starting two compounds before the break.
SMILES	STK33 inh
COC(=O)Cn1c(CCS(=O)(=O)c2ccc(Cl)cc2)nc2ccccc21	-0.4
c1ccc(-n2ncc3c(NC4CCCCCC4)ncnc32)cc1	0.9
Cc1ccc(SCCC(=O)Nc2c(C)n(C)n(-c3ccccc3)c2=O)cc1	-1.4
S=C(NCC1CCCO1)N1CCN(c2ccccc2)CC1 (configuration not stated)	-2.2
COc1ccccc1C(=O)CC(=O)C(=O)Nc1cccc([N+](=O)[O-])c1C	1.3
CSc1ccccc1OCc1cc(C(=O)NCC(C)(C)N2CCOCC2)no1	-1.1
CCN(CC(=O)Nc1c(F)cccc1F)C(=O)CCC(=O)c1ccc(F)cc1	-0.6
O=C(CN(Cc1ccccc1)C(=O)CCC(=O)Nc1ccccn1)NCc1ccc(F)cc1	1.0
Cc1cc(C)nc(SC2CCCCC2NS(=O)(=O)c2ccc(Cl)cc2)n1 (configuration not stated)	0.6
Cc1nc2ccccc2c2c1C(=O)N(c1cccc(C(=O)O)c1)C2=O	-0.7
Cc1ccccc1NCC(=O)c1ccc(Br)cc1	-0.3
CC(C)(C)c1cc(CCC(=O)NNC(=S)NC(=O)c2ccccc2)cc(C(C)(C)C)c1O	-1.6
O=C(NCCc1ccc(Cl)cc1)c1ccc(Br)s1	-1.6
CCN(CC)CCNC(=O)CCn1c(=S)[nH]c2cc3c(cc2c1=O)OCO3	-1.5
COc1ccc(-n2c(SC)nc(O)cc2=O)cc1	0.0
CCOC(=O)C1=C(CCc2ccccc2)NC(=O)NC1c1ccc(C#N)cc1 (configuration not stated)	0.0
CN(C)c1ccc(/C=N/N2CCN(c3ccccn3)CC2)cc1	-1.4
CCOC(=O)CC/C(=N\NC(N)=O)c1ccc(OC)c(Cl)c1	0.4
Cc1ccc(CNC(=O)c2ccc(S(=O)(=O)N(C)C)cc2)n1C	-0.7
COc1cccc(N2C(=O)CN(Cc3cc(OC)c(OC)c(OC)c3)C2=S)c1	-0.9
COc1ccc(CCN2CC(C(=O)Nc3ccc(S(C)(=O)=O)cc3)CC2=O)cc1OC (configuration not stated)	-1.4
CCc1nnc2sc(-c3ccc(NC(=O)c4ccco4)cc3)nn12	-0.1
C=CCn1c(=O)/c(=C2/SC(C)=C(C)N2CC)s/c1=C1/C(=O)N(CC)C(=S)N1c1ccccc1	1.4
Cc1ccccc1N(C)S(=O)(=O)c1nnc(NC(=O)c2ccccc2F)s1	-2.1
Cc1cc(F)ccc1Oc1cc(NN2CCCCC2)c([N+](=O)[O-])cc1[N+](=O)[O-]	0.0
Cc1cccc(C)c1OCc1nnc(SCC(=O)Nc2ccc(N3CCOCC3)cc2)o1	-0.6
COc1ccccc1Nc1ncnc2sccc12	-1.0
O=C(Nc1ccccc1C(=O)O)C1=NN=CC1	-0.3
Cc1ccc(NC(=O)Cn2nnc(C(=O)NCCc3ccccc3)c2N)c(C)c1	-0.2
CN(CC(=O)Nc1cccc(F)c1)C(=O)CCC1CCCCC1	-0.8
Cc1cc(N)n2nc(C)c(-c3ccccc3)c2n1	0.9
CC[C@@]12C(=O)N(c3ccc(OC)cc3)C(=O)N1[C@H](c1cccc(C)c1)[C@@H]1C(=O)N(Cc3ccccc3)C(=O)[C@@H]12	0.0
COCCNc1ccc(N2C(=O)CCCC2=O)cc1[N+](=O)[O-]	-0.2
COc1ccc(-c2nnc(OCc3nc4ccccc4n3C)c3ccccc23)cc1	0.5
COc1ccc(/C=N/NC(=O)CN(Cc2ccccc2)S(=O)(=O)c2ccc3c(c2)OCCO3)cc1	-0.9
OCCN(C=NC1=NN(c2cccc(C(F)(F)F)c2)CC1)CCO	-1.8
CCCCOc1ccc(OCCCC)c2c1NC1(N2)C(=O)N(C(C)=O)c2ccccc21	-2.2
S=C(Nc1ccc(Br)cc1Cl)N1CCN(c2ccccn2)CC1	-0.7
O=C(CSc1ccc(-c2ccccc2)nn1)N1CCN(c2ccccc2)CC1	-1.9
CC1CN(CCOCCOc2ccccc2-c2ccccc2)CC(C)O1 (configuration not stated)	-16
CCOC(=O)C1CSc2[nH]c(=O)sc2C1c1ccccc1 (configuration not stated)	-0.3
CC(=O)Nc1ccc2c(c1)nc(C)n2-c1ccccc1	0.2
COc1cc(NC(=O)CN2C(=O)C(c3ccccc3)=NC2(C)C)cc(OC)c1	-1.5
COc1ccc(C(C)=O)c(OC(=O)c2ccc(OC)c(OC)c2)c1	-1.2
COc1cc(/C=N/Nc2nc(C)cc(=O)[nH]2)ccc1OC(=O)c1cccnc1	-0.5
CCOC(=O)c1ccc(NC(=O)Nc2ccc3c(c2)OCCO3)cc1	1.8
NS(=O)(=O)c1ccc(Nc2nc3ccccc3nc2NS(=O)(=O)c2cccc([N+](=O)[O-])c2)cc1	0.9
O=S(=O)(c1ccc(F)cc1)N1CCN(Cc2ccccc2C(F)(F)F)CC1	-1.3
CC1Cc2ccccc2N1C(=O)COC(=O)c1ccc(Br)o1 (configuration not stated)	-0.3
COc1ccc2[nH]c(C(=O)Nc3ccc(F)cc3Br)cc2c1	-1.2
COc1ccccc1C1CC(c2ccccc2)=NN1S(=O)(=O)c1ccccc1 (configuration not stated)	2.9
COc1ccccc1NC(=O)c1ccc(CN2CCOCC2)cc1	2.1

Continuation.
SMILES	STK33 inh
CCCn1c(N2CCN(Cc3ccc(Cl)cc3)CC2)nc2ccccc21	-0.3
O=C(CNC(=O)/C(=C\c1ccc(Br)cc1)NC(=O)c1ccccc1)OCc1ccccc1	-0.6
Cc1ccccc1NC(=O)CCN1CCN(C/C=C/c2ccccc2)CC1	1.4
O=C(NCc1ccccn1)c1ccc2c(=O)n(CCc3ccccc3)c(=O)[nH]c2c1	-0.1
Cc1cc([N+](=O)[O-])nn1CC(=O)N1CCc2ccccc2C1	3.4
Cc1ccc2sc(N(CCCN(C)C)C(=O)c3ccc(S(=O)(=O)N4CCOCC4)cc3)nc2c1C	-0.8
O=C(N/C(=C/c1ccc(Br)cc1)C(=O)N1CCCC1)c1cccs1	-1.0
COc1cccc(-c2nc3n(n2)C(c2ccccc2Cl)C(C(N)=O)=C(C)N3)c1 (configuration not stated)	-0.5
Cc1c(C(=O)N(C)Cc2ccccc2)oc2c(Cl)cccc12	-0.8
COC(=O)c1ccc(NS(=O)(=O)c2ccc(OC)cc2)cc1	-0.8
COc1cccc(-c2cc(C(F)(F)F)nc(-n3cncn3)n2)c1	-2.5
CC1=NN(c2ccccc2)C(=O)C1C(=O)c1ccc(Cl)cc1 (configuration not stated)	-1.0

Only part of the results is shown, and most or all hits are left out here.
